# Vaccinia inh = blocks a specific stage of Vaccinia orthopoxvirus infection; activity change (mCherry), % (no concentration beside the values); Vaccinia-infected cells, mCherry/Venus stage reporter fluorescence; stronger effect = lower value; some inactives read as strong as hits; hit rate 0.01% among 89,000;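 active means mCherry past -33% and 40 or more points under the early reporter, replicates agreeing; inconclusive means past -33% without that gap or agreement; tested in A549 cells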;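 further: scaled between vehicle wells and reference inhibitor wells; 23 nL library stock went into each well; one replicate is shown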
# Vaccinia inh Venus = second read-out of Vaccinia inh, no call of its own (marks repeat the call); activity change (Venus), %; measured here: Venus reporter, other viral stage;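 negative = less Venus signal; first of two replicates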
# Active calls of the source: *; ? = inconclusive; . = no result given; & = joins results of further samples.
no.	compound	Vaccinia inh	Vaccinia inh Venus
1	C[C@H]1CN([C@@H](C)CO)C(=O)CCCn2nncc2CO[C@H]1CN(C)Cc1ccc(C(=O)O)cc1	29.9	20.3
2	Cc1ccc(-c2ccc3c(c2)O[C@H](CN(C)Cc2cccc(C(=O)O)c2)[C@@H](C)CN([C@@H](C)CO)S3(=O)=O)cc1	-33.0	-35.7
3	CO[C@H]1CN(C)C(=O)c2cc(NC(C)=O)ccc2OC[C@@H](C)N(C(=O)CC2CC2)C[C@H]1C	3.6	6.3
4	C[C@@H]1CCCCO[C@@H](CN(C)S(=O)(=O)c2ccc(Cl)cc2)[C@H](C)CN([C@H](C)CO)C(=O)c2cc(NC(=O)c3ccccc3)ccc2O1	?	.
5	C[C@H]1CN([C@@H](C)CO)C(=O)CCCn2cc(nn2)CO[C@@H]1CN(C)S(=O)(=O)c1ccc(F)cc1	4.4&10.9	6.7&9.5
6	Cn1cnc(S(=O)(=O)N[C@H]2C=C[C@H](CC(=O)Nc3ccccc3)O[C@@H]2CO)c1	18.0	9.7
7	C[C@H]1CN([C@@H](C)CO)C(=O)Cc2cc(NC(=O)Cc3cn(C)c4ccccc34)ccc2O[C@@H]1CN(C)C(=O)Nc1ccccc1	15.9	10.1
8	C[C@H]1CN([C@@H](C)CO)C(=O)c2cc(NS(C)(=O)=O)ccc2O[C@@H]1CN(C)S(=O)(=O)c1cn(C)cn1	19.1	6.2
9	Cc1ccccc1-c1ccc([C@H]2[C@@H](CO)N3CCCCN(C(=O)Nc4ccc(F)cc4)C[C@@H]23)cc1	?	.
10	Cc1ccc(-c2ccc([C@H]3[C@@H](CO)N4CCCCN(C(=O)Nc5cccc(F)c5)C[C@H]34)cc2)cc1	?	.
11	COc1ccc(S(=O)(=O)N(C)C[C@@H]2OCCCC[C@@H](C)Oc3ccc(NS(=O)(=O)c4cn(C)cn4)cc3C(=O)N([C@@H](C)CO)C[C@@H]2C)cc1	34.5	11.8
12	CO[C@H]1CN(C)C(=O)c2cc(NC(=O)Nc3ccccc3F)ccc2OC[C@@H](C)N(C)C[C@@H]1C	-7.8	-5.9
13	CCCC#Cc1ccc2c(c1)O[C@@H](CN(C)C(=O)c1ccncc1)[C@@H](C)CN([C@H](C)CO)S2(=O)=O	6.2	1.9
14	Cc1ccc(S(=O)(=O)NCC[C@@H]2CC[C@H](NC(=O)Nc3cccc(F)c3)[C@H](CO)O2)cc1	-17.7	-10.5
15	C[C@@H]1CN([C@@H](C)CO)C(=O)Cc2cc(NC(=O)CCCCCC(=O)Nc3ccccc3N)ccc2O[C@H]1CN(C)C(=O)Nc1ccc2c(c1)OCO2	17.8	6.6
16	CC(C)CC#Cc1ccc2c(c1)O[C@@H](CN(C)C(=O)c1ccccn1)[C@@H](C)CN([C@@H](C)CO)S2(=O)=O	-17.3	-16.3
17	CNC[C@@H]1Oc2c(NC(=O)c3cnccn3)cccc2C(=O)N([C@H](C)CO)C[C@H]1C	10.3	-1.4
18	C[C@H]1CN([C@@H](C)CO)C(=O)c2cccc(NC(=O)Nc3cccc4ccccc34)c2O[C@H]1CN(C)Cc1ccc(C(=O)O)cc1	9.2	5.1
19	CN1C(=O)c2cc(NC(=O)Nc3ccc(Cl)cc3)ccc2OC[C@H]2O[C@@H](CC(=O)NCCN3CCCCC3)CC[C@H]21	-14.0	-8.7
20	COCC(=O)N(C)C[C@@H]1Oc2cc(C3=CCCC3)ccc2S(=O)(=O)N([C@@H](C)CO)C[C@@H]1C	24.0	20.3
21	O=C(C[C@H]1CC[C@@H]2[C@H](COC[C@@H](O)CN2Cc2ccc3c(c2)OCO3)O1)Nc1ccc(-c2ccccc2)cc1	?	.
22	C[C@@H]1CN([C@H](C)CO)C(=O)c2ccccc2-c2ccccc2CO[C@@H]1CN(C)C(=O)Cc1ccccc1	15.2	9.6
23	COc1ccc(S(=O)(=O)Nc2ccc3c(c2)C(=O)N([C@H](C)CO)C[C@@H](C)[C@@H](CN(C)Cc2ccc(Oc4ccccc4)cc2)O3)cc1	?	.
24	C/C=C/c1ccc2c(c1)O[C@@H](CN(C)C(=O)Cc1ccncc1)[C@@H](C)CN([C@@H](C)CO)S2(=O)=O	-9.1	-0.6
25	C[C@@H]1CN([C@@H](C)CO)C(=O)c2cc(-c3cncnc3)cnc2O[C@@H]1CN(C)CC1CCOCC1	2.5	-6.1
26	C[C@H](O)C#Cc1cnc2c(c1)C(=O)N([C@@H](C)CO)C[C@@H](C)[C@H](CN(C)C(=O)CC1CC1)O2	2.2	7.4
27	COc1cccc(C#Cc2ccc([C@@H]3[C@@H](CO)N4C(=O)CN(S(=O)(=O)c5ccccc5C)C[C@@H]34)cc2)c1	-8.1	-24.9
28	CCC(=O)N1[C@@H](CO)[C@@H](c2ccccc2)C12CN(C(=O)Nc1cccc(OC)c1)C2	13.0	10.0
29	COc1ccc(OC(=O)N(C)C[C@H]2OCc3cn(nn3)CCCC(=O)N([C@H](C)CO)C[C@@H]2C)cc1	14.8	20.7
30	CCC(=O)N[C@H]1C[C@@H]2O[C@H](CO)CC[C@@H]2O[C@@H]1CCc1ccc(-c2cccc(OC)c2)cc1	-4.9	-5.6
31	CCC(=O)Nc1ccc2c(c1)OC[C@@H](C)N(Cc1cccnc1)C[C@@H](C)[C@@H](OC)CN(C)C2=O	2.4	4.4
32	CC(C)NC(=O)Nc1ccc2c(c1)C(=O)N([C@@H](C)CO)C[C@H](C)[C@@H](CN(C)C)OCCCC[C@H](C)O2	17.4	-7.2
33	O=C(CC(F)(F)F)N1C[C@H]2[C@@H](c3ccccc31)[C@H](CO)N2CC1CCCCC1	-16.9	-13.7
34	O=C(C[C@H]1CC[C@H](NC(=O)Nc2cc(F)ccc2F)[C@@H](CO)O1)NCc1ccc2c(c1)OCO2	-12.4	-0.6
35	C[C@@H]1CN([C@@H](C)CO)C(=O)Cc2cc(NC(=O)Nc3ccc(C(F)(F)F)cc3)ccc2O[C@H]1CN(C)C(=O)Nc1cccc2ccccc12	2.0	6.6
36	COCC(=O)Nc1ccc2c(c1)C(=O)N(C)[C@H]1CC[C@H](CC(=O)NCC3CC3)O[C@H]1CO2	14.3	13.8
37	C[C@@H]1CCCCO[C@H](CN(C)Cc2ccc(C(F)(F)F)cc2)[C@@H](C)CN([C@H](C)CO)C(=O)c2cc(NS(=O)(=O)c3ccccc3)ccc2O1	?	.
38	C[C@@H]1CN([C@H](C)CO)C(=O)c2cc(NS(=O)(=O)c3ccc(F)cc3)ccc2O[C@H]1CN(C)C(=O)Nc1ccc(C(F)(F)F)cc1	17.8	13.5
39	C[C@@H]1CCCCO[C@@H](CN(C)S(=O)(=O)c2ccccc2)[C@@H](C)CN([C@@H](C)CO)C(=O)c2cc(NC(=O)c3ccncc3)ccc2O1	15.5	3.2
40	COC(=O)C[C@H]1CC[C@H]2[C@@H](COc3ccc(NC(=O)Nc4ccccc4C)cc3C(=O)N2C)O1	-2.9	3.9
41	COc1ccc(C#Cc2ccc3c(c2)[C@@H]2[C@@H](CCN2C(=O)c2cccc(F)c2)[C@@H](CO)N3)cc1	7.2	11.2
42	OC[C@H]1[C@H](c2ccc(-c3cccc(F)c3)cc2)[C@H]2CN(CCC(F)(F)F)CCCCN21	?	.
43	C[C@@H]1CN([C@@H](C)CO)C(=O)c2cc(NC(=O)CCC(F)(F)F)ccc2O[C@H]1CN(C)C(=O)Nc1ccc(C(F)(F)F)cc1	14.5	7.8
44	CN1CCN(C(=O)C[C@H]2CC[C@@H]3[C@H](COC[C@@H](O)CN3CC3CCCCC3)O2)CC1	0.1	2.4
45	COc1cccc(C(=O)N2C[C@H]3[C@@H](c4ccccc42)[C@H](CO)N3C(=O)c2cccc(F)c2)c1	-3.4	6.0
46	C[C@H](CO)N1C[C@H](C)[C@@H](CN(C)C(=O)CN2CCOCC2)Oc2ncc(/C=C/c3ccccc3)cc2C1=O	9.0	7.6
47	Cc1ccccc1-c1ccc2c(c1)O[C@@H](CN(C)C)[C@H](C)CN([C@H](C)CO)S2(=O)=O	-13.2	-8.5
48	C[C@H]1CN([C@@H](C)CO)C(=O)Cc2cc(NC(=O)CCC(F)(F)F)ccc2O[C@H]1CN(C)C(=O)Nc1ccc(F)cc1	4.2	8.6
49	C[C@@H]1CN([C@H](C)CO)C(=O)c2cccc(NS(C)(=O)=O)c2O[C@H]1CN(C)Cc1ccc(-c2ccccc2)cc1	-10.0	-5.1
50	N#C[C@@H]1[C@H](c2ccc(-c3ccccc3)cc2)[C@H](CO)N1C(=O)Cc1ccccc1	-23.8	-11.6

# Overlap with the part before: 5 entries, followed by the next part.
no.	compound	Vaccinia inh	Vaccinia inh Venus
46	C[C@H](CO)N1C[C@H](C)[C@@H](CN(C)C(=O)CN2CCOCC2)Oc2ncc(/C=C/c3ccccc3)cc2C1=O	9.0	7.6
47	Cc1ccccc1-c1ccc2c(c1)O[C@@H](CN(C)C)[C@H](C)CN([C@H](C)CO)S2(=O)=O	-13.2	-8.5
48	C[C@H]1CN([C@@H](C)CO)C(=O)Cc2cc(NC(=O)CCC(F)(F)F)ccc2O[C@H]1CN(C)C(=O)Nc1ccc(F)cc1	4.2	8.6
49	C[C@@H]1CN([C@H](C)CO)C(=O)c2cccc(NS(C)(=O)=O)c2O[C@H]1CN(C)Cc1ccc(-c2ccccc2)cc1	-10.0	-5.1
50	N#C[C@@H]1[C@H](c2ccc(-c3ccccc3)cc2)[C@H](CO)N1C(=O)Cc1ccccc1	-23.8	-11.6
51	Cc1noc(C)c1NC(=O)N[C@H]1C=C[C@H](CC(=O)Nc2ccccc2)O[C@H]1CO	2.5	8.9
52	O=C(Cc1ccccc1)N[C@H]1C=C[C@H](CC(=O)N2CCCCC2)O[C@H]1CO	16.7	17.3
53	COc1ccc(NC(=O)N(C)C[C@H]2Oc3c(NC(=O)c4ccc(-c5nccs5)cc4)cccc3C(=O)N([C@H](C)CO)C[C@H]2C)cc1	-5.8	-0.5
54	C[C@H]1CCCCO[C@H](CN(C)S(=O)(=O)c2ccccc2)[C@@H](C)CN([C@@H](C)CO)C(=O)c2cc(NC(=O)NC3CCCCC3)ccc2O1	?	.
55	C[C@@H]1CCCCO[C@@H](CN(C)Cc2ccc(C(F)(F)F)cc2)[C@H](C)CN([C@H](C)CO)C(=O)c2cc(NC(=O)c3ccccc3)ccc2O1	?	.
56	CCCNC(=O)[C@@H]1[C@@H](CO)[C@@H]2Cn3c(ccc(C4=CCCC4)c3=O)[C@@H]2N1C(=O)c1cnccn1	0.4	-5.0
57	C[C@@H]1CN([C@@H](C)CO)C(=O)CCCn2cc(nn2)CO[C@H]1CN(C)Cc1cccc(C(F)(F)F)c1	-3.6	2.6
58	COc1ccccc1NC(=O)N[C@@H]1C=C[C@@H](CC(=O)N[C@H](C)c2ccccc2)O[C@H]1CO	-3.7	19.3
59	O=C(C[C@H]1CC[C@H]2[C@@H](COC[C@H](O)CN2C(=O)Nc2ccc(Cl)c(Cl)c2)O1)NCc1ccc(Cl)c(Cl)c1	?	.
60	O=C(C[C@H]1CC[C@H](NC(=O)Cc2cccnc2)[C@@H](CO)O1)NCc1ccc2c(c1)OCO2	8.0	4.7
61	COc1cccc(NC(=O)N(C)C[C@@H]2Oc3cc(/C=C/c4ccccc4)ccc3S(=O)(=O)N([C@H](C)CO)C[C@H]2C)c1	?	.
62	O=C(C[C@H]1CC[C@H]2[C@@H](COC[C@@H](O)CN2S(=O)(=O)c2ccc(Oc3ccccc3)cc2)O1)NCCN1CCCCC1	-28.5	-17.7
63	CO[C@@H]1CN(C)C(=O)c2ccc(NS(C)(=O)=O)cc2OC[C@H](C)N(CC2CCOCC2)C[C@H]1C	9.8	18.6
64	O=C(C[C@H]1C=C[C@@H](NC(=O)CCN2CCCCC2)[C@@H](CO)O1)Nc1ccc(-c2ccccc2)cc1	-34.9	-25.4
65	C[C@H](CO)N1C[C@H](C)[C@@H](CN(C)C(=O)Nc2ccc3c(c2)OCO3)Oc2ccc(NC(=O)CCCCCC(=O)Nc3ccccc3N)cc2CC1=O	1.4	12.2
66	C[C@@H]1CCCCO[C@H](CN(C)C(=O)Nc2ccc3c(c2)OCO3)[C@@H](C)CN([C@H](C)CO)C(=O)c2cc(NS(C)(=O)=O)ccc2O1	39.1	12.1
67	O=C(C1CC1)N1C[C@H]2[C@@H](c3ccccc31)[C@H](CO)N2C(=O)c1ccccc1F	5.5	6.3
68	O=C(C[C@H]1CC[C@@H]2[C@H](COC[C@@H](O)CN2S(=O)(=O)c2cccc(F)c2)O1)NCCCN1CCOCC1	12.2	9.8
69	CCC(=O)N1CC2(C1)[C@H](c1ccc(-c3cccc(OC)c3)cc1)[C@@H](CO)N2C(C)=O	-5.8	-2.1
70	C[C@@H]1CN([C@@H](C)CO)S(=O)(=O)c2ccc(C#CC3CCCC3)cc2O[C@@H]1CN(C)C(=O)Cc1ccncc1	?	.
71	O=C(CC1CC1)N1[C@H](CO)[C@@H]2c3ccccc3N(S(=O)(=O)c3ccc(F)cc3)C[C@@H]21	-4.3	5.9
72	Cc1noc(C)c1NC(=O)N(C)C[C@H]1Oc2c(NS(=O)(=O)c3ccccc3)cccc2C(=O)N([C@H](C)CO)C[C@@H]1C	19.9	27.6
73	C[C@H]1CN([C@@H](C)CO)S(=O)(=O)c2ccc(C3=CCCCC3)cc2O[C@@H]1CN(C)Cc1cccc(C(=O)O)c1	?	.
74	N#C[C@@H]1[C@H](c2ccccc2)[C@@H](CO)N1S(=O)(=O)Cc1ccccc1	20.7	13.5
75	CC(C)NC(=O)Nc1cccc2c1O[C@@H](CN(C)S(=O)(=O)c1cn(C)cn1)[C@@H](C)CN([C@H](C)CO)C2=O	4.2	6.4
76	COc1ccccc1CN1[C@H](CO)[C@H](c2ccccc2)C12CN(C(=O)Cc1ccccc1)C2	-29.2	-14.1
77	C[C@@H]1CCCCO[C@@H](CN(C)S(=O)(=O)c2ccccc2)[C@H](C)CN([C@H](C)CO)C(=O)c2cc(NS(=O)(=O)c3cccs3)ccc2O1	?	.
78	O=C(C[C@H]1C[C@H]2c3cc(NC(=O)c4cccnc4)ccc3O[C@H]2[C@@H](CO)O1)NCC1CC1	16.5	5.9

# The list is partial (hit frequency here may not be typical).
